SARS PLpro yeast – blocks SARS-CoV papain-like protease in a yeast assay; Potency, µM (top dose mostly 32.9 µM), for the others: at the highest dose activity, positive = growth rescue; 0.19% of 330,000 active; AID 485353; S. cerevisiae expressing SARS-CoV PLpro, growth rescue; control for the full effect not named in the record; active means well fitted rising curve with a large enough effect; inconclusive means small, poorly fitted or top-dose-only effect; inactive means no such curve, though single readings can be large or run the other way; note: 0% is about no effect; nearly all actives have a fitted effect of over 55% in size; growth read by luminescence after 48 h
Lassa entry inh – Lassa virus entry inhibition. 1.2% of 300,000 active. Lassa virus pseudotype entry inhibition, cell reporter; control for the full effect not named in the record. Potency, µM (series often up to 37.9 µM), for the others: at the highest dose activity change, negative = inhibition, most hits filed as inhibitors. AID 540256; active means well fitted inhibition curve with a large enough effect; inconclusive means small, poorly fitted or top-dose-only effect, or effect the other way; inactive means flat fitted curve, though single readings scatter; tested in HEK293 cells; note: % is set by controls: 0 for no effect and ±100 for the full control effect; nearly all actives have a fitted effect of over 50% in size; luciferase read-out
2A StopGo – FMDV 2A StopGo reporter, luciferase signal; Potency, µM (top dose mostly 57.9 µM), inactives show top-dose signal change, negative = less light; 1.2% of 410,000 active; human cells with a luciferase reporter of 2A StopGo recoding; control for the full effect not named in the record; active = well fitted falling curve with a large enough effect; inconclusive = small, poorly fitted or top-dose-only effect; inactive = no such curve, though single readings can be large or run the other way; tested in HEK293T cells; note: % is set by controls: 0 for no effect and ±100 for the full control effect; nearly all actives have a fitted effect of over 45% in size; luciferase light after 4 h
RE007 growth inh – less growth of the S. pombe RE007 Vpr strain; S. pombe RE007 Vpr strain, BacTiter-Glo ATP luminescence, 24 h; control for the full effect not named in the record; Potency, µM (series often up to 92.2 µM), without a hit: at the highest dose activity change, negative = less growth; 0.21% of 360,000 active; AID 651644; active = well fitted falling curve with a large enough effect; inconclusive = small, poorly fitted or top-dose-only effect; inactive = no such curve, though single readings can be large or run the other way;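 note: % is set by controls: 0 for no effect and ±100 for the full control effect; nearly all actives have a fitted effect of over 50% in size; the assay follows cell death caused by Vpr and the record does not say whether a fall means rescue or toxicity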
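Fission yeast RE007 carrying one integrated HIV-1 vpr copy, seeded at OD 0.01 in PMG+AL medium with 23 nL pinned compound. Grown 24 h at 30 degrees; viability read by BacTiter-Glo luminescence after 5 min.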
Marburg entry inh – blocks Marburg virus binding to or entry into cells | 1.8% of 300,000 active | Potency, µM (titrated, usually from 37.8 µM), for the others: at the top dose activity change, negative = inhibition, usual class: inhibitors | AID 540276 | Marburg virus pseudotyped entry inhibition, cell reporter; control for the full effect not named in the record; about a third of the inactives were read at about 46 µM; active = well fitted inhibition curve with a large enough effect; inconclusive = small, poorly fitted or top-dose-only effect, or effect the other way; inactive = flat fitted curve, though single readings scatter; tested in HEK293 cells; about a fifth of its hits are not listed in these tables; note: % is set by controls: 0 for no effect and ±100 for the full control effect; luciferase read-out
NS1 function inh – inhibitors of influenza NS1 protein function; S. cerevisiae slowed by influenza A NS1, growth recovery by OD600; Potency, µM (top dose mostly 46.1 µM), for inactives: at the highest dose activity, positive = more growth; 0.4% of 270,000 active; AID 2326; active means well fitted rising curve with a large enough effect; inconclusive means small, poorly fitted or top-dose-only effect; inactive means no such curve, though single readings can be large or run the other way; note: nearly all actives have a fitted effect of over 50% in size
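Recovery from NS1-induced slow growth read by OD600 in budding yeast switched to galactose assay medium (pH 6.0, -URA) at 1:100 dilution. Compound 23 nl per well; the matching strain lacking NS1 serves as control.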
Cruzain Triton – blocks cruzain activity in presence of Triton detergent; P25779; purified cruzain, Z-FR-AMC fluorescence, 0.01% Triton; Potency, µM, for the others: max response, negative = inhibition, most hits filed as inhibitors; 0.43% of 200,000 active; AID 1478;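 note: plate controls were neutral wells for no effect and buffer without enzyme for full effect; nearly all actives have a fitted effect of over 40% in size; top concentration of the series not given in the record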
Target sequence (P25779 123-467 limits assumed): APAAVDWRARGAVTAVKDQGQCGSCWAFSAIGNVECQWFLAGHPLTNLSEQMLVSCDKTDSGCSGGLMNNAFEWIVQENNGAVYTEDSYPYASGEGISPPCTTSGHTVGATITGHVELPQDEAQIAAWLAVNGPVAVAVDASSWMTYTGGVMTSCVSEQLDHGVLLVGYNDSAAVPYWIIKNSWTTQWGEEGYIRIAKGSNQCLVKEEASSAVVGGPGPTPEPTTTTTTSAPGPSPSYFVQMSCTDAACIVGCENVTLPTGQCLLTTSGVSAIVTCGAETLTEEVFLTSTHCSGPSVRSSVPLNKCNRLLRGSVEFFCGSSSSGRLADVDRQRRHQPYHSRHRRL
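Detergent-containing run (0.01% Triton X-100) in acetate buffer pH 5.5 with 5 mM DTT: enzyme at 1.5 nM final, 15 min compound preincubation at room temperature, then 2 uM Z-FR-AMC substrate. Activity taken as 60 s fluorescence increase at 360/450 nm.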
Cruzain noTriton – blocks cruzain activity in detergent-free assay | P25779 | purified cruzain, Z-FR-AMC fluorescence, no detergent | Potency, µM, for the others: max response, negative = inhibition, usual class: inhibitors | 2.3% of 200,000 active | AID 1476;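 note: plate controls were enzyme without inhibitor for no effect and buffer without enzyme for full effect; nearly all actives have a fitted effect of over 40% in size; top concentration of the series not given in the record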
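Purified cruzain at 1.5 nM, pre-incubated 15 min with compound at room temperature in 100 mM sodium acetate pH 5.5, 5 mM DTT, 0.00005% Triton X-100. Reaction started with 2 uM Z-FR-AMC; AMC fluorescence increase over 60 s gives rate.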
An asterisk follows results filed as active; & = joins results of further samples; [ ] = dose if it differs, or a comment. Unless noted, calls come from the whole dose curve; as a rule, active = well fitted curve in the direction sought with a large enough effect; inconclusive = small, poorly fitted or top-dose-only effect, or another doubt; inactive = no such curve, though single readings can be large; an effect the other way counts as inactive or inconclusive. Potency is the fitted concentration of half-maximal effect.

CN(C)CP(=O)(O)CN(C)C=O was read as SARS PLpro yeast -3%, Lassa entry inh 3%, 2A StopGo -11%, RE007 growth inh 3%, Marburg entry inh 9%, NS1 function inh 3%, Cruzain Triton 2.1% and Cruzain noTriton 0%.
CN(CC(=O)OCC(=O)Nc1ccccc1)S(=O)(=O)c1ccc(Cl)cc1 was read as SARS PLpro yeast -6%, Lassa entry inh 7%, 2A StopGo 3%, RE007 growth inh 7%, Marburg entry inh -21%[46.1 µM], NS1 function inh -68%, Cruzain Triton 0.9% and Cruzain noTriton -4%.
O=C(Oc1ccc([N+](=O)[O-])cc1)c1cncc(Br)c1 was read as SARS PLpro yeast -18%, Lassa entry inh inconclusive, 2A StopGo 39%[activator], RE007 growth inh 24%, Marburg entry inh 19%, NS1 function inh 3%, Cruzain Triton -6.0% and Cruzain noTriton -12%.
COc1ncccc1C(=O)NC1CCCc2c1cnn2-c1cc(C)cc(C)c1 (centres undefined) was read as SARS PLpro yeast -19%, Lassa entry inh -10%[46.1 µM], 2A StopGo 6%, RE007 growth inh -3%, Marburg entry inh inconclusive and NS1 function inh -7%.
N=C1C(=O)OCC1c1ccccc1NC(=O)CN1CCCCC1 (centres undefined) was read as SARS PLpro yeast -15%, Lassa entry inh 1%, 2A StopGo 0%, RE007 growth inh -8%, Marburg entry inh 4%, NS1 function inh -6%, Cruzain Triton -2.7% and Cruzain noTriton -9%.
Screening O=C(NC(=S)N1CCN(c2ccccn2)CC1)c1ccco1 returned SARS PLpro yeast 0%, 2A StopGo 1%, RE007 growth inh 0% and NS1 function inh 1%.
`O=C(NCCc1nnc2ccc(SCC(=O)N3CCOCC3)nn12)c1ccccc1` gave SARS PLpro yeast -3%, 2A StopGo 11%, RE007 growth inh 0% and NS1 function inh -3%.
For CC(=O)c1c(C)n(-c2ccc(C)cc2)c2ccc(OC(=O)COc3ccccc3)cc12 the results were Lassa entry inh -12%[46.1 µM], 2A StopGo -23%, Marburg entry inh -8%[46.1 µM], Cruzain Triton -2.4% and Cruzain noTriton 13%.
Screening O=C(NC1CCCCC1)N1CCC(c2nc3ccc(Cl)cc3[nH]2)CC1 returned SARS PLpro yeast 3%, Lassa entry inh 4%, 2A StopGo -10%, RE007 growth inh 1%, Marburg entry inh -24%, NS1 function inh -9%, Cruzain Triton -6.7% and Cruzain noTriton -4%.
Screening CCS(=O)(=O)N1CCC(C(=O)Nc2ccccc2OC)CC1 returned SARS PLpro yeast 2%, 2A StopGo -4%, RE007 growth inh 5% and NS1 function inh -6%.
`Cn1c(-c2ccccc2)c(C=O)c2ccccc21` gave SARS PLpro yeast -3%, 2A StopGo 9%, RE007 growth inh inconclusive and NS1 function inh -9%.
Screening CCc1cc2c(-c3ccccc3)cc(=O)oc2cc1OC(C)C(=O)O (centres undefined) returned SARS PLpro yeast -2%, 2A StopGo 3%, RE007 growth inh 3% and NS1 function inh 10µM*.
Screening COc1cc(C(=O)N[C@H](C(=O)NC(C)C23CC4CC(CC(C4)C2)C3)C(C)C)cc(OC)c1OC (some centres undefined) returned SARS PLpro yeast 4%, Lassa entry inh -19%, 2A StopGo -17%, RE007 growth inh -2%, Marburg entry inh -17%[46.1 µM], NS1 function inh 3%, Cruzain Triton 2.6% and Cruzain noTriton inconclusive.
`CN1CCC(N(C)c2nc(-c3ccc([N+](=O)[O-])cc3)nc3ccccc23)CC1` gave SARS PLpro yeast -5%, Lassa entry inh inconclusive, 2A StopGo 0%, RE007 growth inh inconclusive, Marburg entry inh 11µM*, NS1 function inh -29%, Cruzain Triton -2.9% and Cruzain noTriton -10%.
`O=C(COC(=O)CCNS(=O)(=O)c1ccccc1)NC(=O)c1ccccc1` gave SARS PLpro yeast 4%, Lassa entry inh 3%, 2A StopGo -8%, RE007 growth inh 13% and Marburg entry inh -6%.
For C=CCn1c(=N)n(CC(=O)OCC)c2ccccc21 the results were SARS PLpro yeast -16%, Lassa entry inh -33%, 2A StopGo -21%, RE007 growth inh 142%, Marburg entry inh -3%, NS1 function inh 0%, Cruzain Triton 3.0% and Cruzain noTriton -6%.
`CCCCc1cc(=O)oc2cc(O)cc(O)c12` gave SARS PLpro yeast -1%, Lassa entry inh 0%[46.1 µM], 2A StopGo -2%, RE007 growth inh -7%, Marburg entry inh -11%[46.1 µM] and NS1 function inh -1%.
COc1cccc(CNC(=O)CCSCc2ccccc2F)c1 was read as SARS PLpro yeast -5%, Lassa entry inh 0%, 2A StopGo -17%, RE007 growth inh 10% and Marburg entry inh -4%.
For COc1ccc(CCN2C(=O)CC(NCc3ccc4c(c3)OCO4)C2=O)cc1OC (centres undefined) the results were SARS PLpro yeast -12%, Lassa entry inh 9%, 2A StopGo -22%, RE007 growth inh 14%, Marburg entry inh 1%[46.1 µM], NS1 function inh -11%, Cruzain Triton 0.6% and Cruzain noTriton 7%.
Screening Cc1ccc2nc3c(cc(S(=O)(=O)c4ccccc4)c(=N)n3C3CCCC3)c(=O)n2c1 returned Lassa entry inh 6%, 2A StopGo 29%, RE007 growth inh 4% and Marburg entry inh 3%[46.1 µM].
CCOc1ccc(S(=O)(=O)NCCC(=O)NCC(C)(C)N2CCOCC2)cc1 was read as SARS PLpro yeast 2%, Lassa entry inh 3%, 2A StopGo -5%, RE007 growth inh 11% and Marburg entry inh inconclusive.
For C=C(C)COc1ccc2c3c(c(=O)oc2c1OCC(=C)C)CCC3 the results were SARS PLpro yeast 3%, Lassa entry inh inconclusive, 2A StopGo 26%, RE007 growth inh 0%, Marburg entry inh -3%, NS1 function inh -4%, Cruzain Triton -8.6% and Cruzain noTriton 4%.
For COc1cc([N+](=O)[O-])ccc1NC(=S)N1CCOCC1 the results were SARS PLpro yeast 10%, 2A StopGo 8%, RE007 growth inh 1% and NS1 function inh 5%.
`CCOC(=O)c1ccc(CSc2nncn2N)o1` gave Lassa entry inh inconclusive, 2A StopGo 0%, RE007 growth inh 8%, Marburg entry inh inconclusive, NS1 function inh -6%, Cruzain Triton 5.3% and Cruzain noTriton -8%.

Compounds listed so far that contain an aryl thioether with sulfur outside any ring:
`O=C(NCCc1nnc2ccc(SCC(=O)N3CCOCC3)nn12)c1ccccc1` gave SARS PLpro yeast -3%, 2A StopGo 11%, RE007 growth inh 0% and NS1 function inh -3%.
`CCOC(=O)c1ccc(CSc2nncn2N)o1` gave Lassa entry inh inconclusive, 2A StopGo 0%, RE007 growth inh 8%, Marburg entry inh inconclusive, NS1 function inh -6%, Cruzain Triton 5.3% and Cruzain noTriton -8%.

Next compounds.
Screening COc1cccc(CNc2ccc(F)c(Cl)c2)c1 returned SARS PLpro yeast -4%, Lassa entry inh -13%, 2A StopGo 13%, RE007 growth inh -2%, Marburg entry inh -17%&-17%, NS1 function inh -5%, Cruzain Triton -4.1% and Cruzain noTriton -1%.
`Cc1ccccc1OCC(=O)NNC(=O)c1ccoc1C` gave SARS PLpro yeast 0%, Lassa entry inh 12%, 2A StopGo 4%, RE007 growth inh 22% and Marburg entry inh 18%.
Screening O=C(/C=C/c1ccco1)NC(=S)Nc1cccc([N+](=O)[O-])c1 returned SARS PLpro yeast 7%, Lassa entry inh inconclusive, 2A StopGo 36%[activator], RE007 growth inh -17%, Marburg entry inh inconclusive, NS1 function inh 22µM*, Cruzain Triton -16% and Cruzain noTriton 32µM*.
`CCOC(=O)Cc1cc(=O)n2[nH]c(C)c(-c3ccc(Cl)cc3)c2n1` gave SARS PLpro yeast -5%, Lassa entry inh inconclusive, RE007 growth inh 10%, Marburg entry inh inconclusive, NS1 function inh 19%, Cruzain Triton 3.3% and Cruzain noTriton 4%.
For CCOc1ccc(S(=O)(=O)N2CCOCC2)cc1NC(=O)CN1C(=O)NC(C)(c2ccc(C)cc2)C1=O (centres undefined) the results were SARS PLpro yeast 1%, Lassa entry inh -7%, 2A StopGo -2%, RE007 growth inh 4% and Marburg entry inh -18%.
Screening CN1CCN(c2ccc(NC(=O)c3ccccc3Br)cc2)CC1 returned SARS PLpro yeast 4%, Lassa entry inh 15%, 2A StopGo 23%, RE007 growth inh -12%, Marburg entry inh 1%, NS1 function inh -11%, Cruzain Triton 0.9% and Cruzain noTriton -4%.
`COc1cc2c(cc1O)[C@@H]1Cc3cc(OC)c(OC)cc3C(C2)N1C` gave SARS PLpro yeast -1%, 2A StopGo -23%, RE007 growth inh 5% and NS1 function inh 19%.
COc1ccc2nc(NC(=O)C3CC(=O)N(c4ccc5c(c4)OCCO5)C3)sc2c1 (centres undefined) was read as SARS PLpro yeast -2%, Lassa entry inh 17%, 2A StopGo 2%, RE007 growth inh 1% and Marburg entry inh 6%.
Screening COC(=O)c1cc(NC(=O)CC2SC(=Nc3ccccc3)N(CCc3c[nH]c4ccccc34)C2=O)cc(C(=O)OC)c1 (centres undefined) returned SARS PLpro yeast -1%, Lassa entry inh inconclusive, 2A StopGo -16%, RE007 growth inh -10%, Marburg entry inh inconclusive, NS1 function inh 29%, Cruzain Triton 15% and Cruzain noTriton 5µM*.
Screening Cc1nc2sc(C(c3ccco3)N3CCN(c4cccc(Cl)c4)CC3)c(O)n2n1 (centres undefined) returned SARS PLpro yeast 19%, Lassa entry inh inconclusive, RE007 growth inh 0%, Marburg entry inh -27%, NS1 function inh 9%, Cruzain Triton -11% and Cruzain noTriton inconclusive.
`Cc1noc(C)c1COC(=O)CCc1nc2ccccc2s1` gave SARS PLpro yeast -4%, Lassa entry inh -3%, 2A StopGo 1%, RE007 growth inh -13%, Marburg entry inh 9%[46.1 µM], NS1 function inh -1%, Cruzain Triton 0.7% and Cruzain noTriton -5%.
For COc1ccc(C(=O)Nc2c(N)nc(SCC(=O)N3CCCCCC3)[nH]c2=O)cc1OC the results were SARS PLpro yeast inconclusive, 2A StopGo -15%, RE007 growth inh 7%, NS1 function inh 9%, Cruzain Triton 3.5% and Cruzain noTriton -3%.
